MgrA-DNA mod: modulators of Staphylococcus aureus MgrA DNA binding. inhibition, %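 (about 10 µg/mL by stock and volumes)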. actives 0.13% (n = 84,000). AID 602314. fluorescence polarization;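 active = above 50% in either of two replicates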;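 note: 0% = protein plus DNA without compound and 100% = DNA alone without protein; higher means less MgrA bound to DNA so lower polarization; one replicate is shown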
Sa helicase inh: S. aureus DNA helicase inhibition. purified S. aureus helicase, fluorescence unwinding assay; about half of the hits fall short of the stated cut. actives 0.05% (n = 120,000). inhibition, %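 (tested at about 80 µM)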. AID 485395;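 active = both duplicates at 50% or more, or one of them with a favoured structure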;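 note: 0% = mean of negative control wells and 100% = mean of positive control wells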
Starred values were filed as active, the others as inactive; / = no result given. Only part of the results is shown; count on the stated rates, not on these rows.

Values in the order – Sa helicase inh | MgrA-DNA mod
> Cc1[nH]n(-c2ccccc2)c(=O)c1/C=N/NC(=O)c1ccccc1
  7 | 6.0
> N#CC1CCN(CCS(=O)(=O)c2ccc(Cl)cc2)CC1
  -16 | /
> Oc1ccc(-c2cnc3ccncc3n2)cc1
  12 | 0.1
> CCOc1ccc(-n2cc(-c3ccccc3)c3c(NC(C)C)ncnc32)cc1
  2 | -1.8
> CC(C)N(C(=O)COc1ncnc2ccccc12)c1ccccc1
  -33 | -1.8
> COc1cccc(NCCC#N)c1
  -20 | /
> O=C(CN1CCOCC1)NN1CC(=O)N(c2ccccc2)CC1=O
  18 | /
> O=C(CCCSc1nnc(Nc2ccccc2F)s1)N1CCOCC1
  6 | /
> CC1CCN(S(=O)(=O)c2ccc(CN3C(=O)c4cccnc4C3=O)cc2)CC1
  14 | /
> CC(=O)Nc1ccc(-c2nn3c(C)nnc3s2)cc1
  22 | -0.7
> Cc1nc(C(F)(F)F)ccc1-c1nnc(SCc2ccc(OC(F)(F)F)cc2)o1
  -23 | /
> O=C(Cn1c(COc2ccc(Cl)cc2)nc2ccccc21)NCc1ccco1
  -8 | /
> CC1CCCC(NC(=O)c2ccc3c(SCC(=O)O)c4c(nc3c2)CCC4)C1C (centres undefined)
  18 | 1.8
> CC(Sc1ccccc1)C(=O)N/N=C/c1cccnc1 (centres undefined)
  -3 | 1.8
> CCCNC(=S)N1CCN(S(=O)(=O)c2ccc(OC)c(OC)c2)CC1
  2 | 0.1
> O=C(NCC1OCCc2ccccc21)c1ccccc1Br (centres undefined)
  3 | /
> CC1=C2C(=CO[C@H](C)[C@H]2C)C(=O)C(C(=O)O)=C1O
  / | -8.7
> CC(C)c1ccc(NC(=O)c2ccccc2N)cc1
  / | 4.8
> CC(C)(C)P(=NC(=S)Nc1ccccc1)(N1CCOCC1)N1CCOCC1
  23 | /
> CN1C/C(=C\c2ccc(O)cc2)C(=O)/C(=C/c2ccc(O)cc2)C1
  12 | -2.9
> O=C(Nc1nnc(C2CC2)o1)c1ccc(S(=O)(=O)N2CCCCC2)cc1
  5 | /
> C=CCCN(C(C)C)S(=O)(=O)c1ccc(C)cc1
  / | -2.0
> COc1ccc(C2C3(C#N)C(N)=NC4(OCCO4)C23C#N)cc1OC (centres undefined)
  9 | /
> CC1=CCC2(CC1)COC(C)(CC(=O)NN)OC2 (centres undefined)
  -19 | /
> CC(=O)Nc1ccc(S(=O)(=O)N2CCN(C/C=C/c3ccccc3)CC2)cc1
  1 | 0.8
> CCOC(=O)C(C)Sc1nc(-c2ccc(OC)cc2)nc2c1c(=O)n(C)c(=O)n2C (centres undefined)
  17 | 0.4
> OCCSc1nnc(-c2cc3ccccc3o2)n1-c1ccccc1
  5 | -0.2
> O=C(CSc1nnnn1Cc1ccccc1)c1ccccc1
  -3 | -2.2
> CCCc1cc(=O)[nH]c(/N=C(/NC(=O)c2ccccc2)Nc2ccccc2)n1
  10 | -1.7
> Cc1ccc(NC(=O)N2CCN(c3cnccn3)CC2)cc1
  2 | -1.4
> COc1ccc(C2C3=C(CC(C)(C)CC3=O)Nc3ccccc3N2C(C)=O)cc1COc1ccc(F)cc1 (centres undefined)
  / | -1.1
> COC(=O)C(C#N)c1ccc(C(F)(F)F)cc1[N+](=O)[O-] (centres undefined)
  / | 1.0
> Brc1cccc(N2Cc3ccccc3C2)c1
  12 | /
> Cc1cccc(-n2c(N)cc(=O)nc2SC(C)C(=O)Nc2ccccc2)c1 (centres undefined)
  18 | /
> CC1(C)CC(=O)c2cc(C(=O)NC(C)(C)C)c(=O)n(-c3ccccc3)c2C1
  -6 | -1.5
> O=C(NOC(=O)c1ccccc1)c1ccccc1
  22 | /
> CC(C)CCN1C(=O)c2ccc(-c3nc4ccccc4o3)cc2C1=O
  7 | -0.7
> CCCCN1C(=O)C2C(C(=O)Nc3ccc(C(C)C)cc3)C3C=CC2(O3)C1C(=O)NC1CCCCC1 (centres undefined)
  7 | -0.7
> Cc1nnsc1-c1nnc(SCC(=O)N(c2ccccc2)C2CCCCC2)n1C1CC1
  / | -3.3
> N#C/C=C/c1ccc(Cl)cc1Cl
  / | -1.4
> O=C(CN1CSCC1=O)Nc1nc(SCc2ccccc2)ns1
  -22 | /
> O=C(O)CCC(=O)c1ccc2ccccc2c1
  15 | /
> N/C(CN1CCSCC1)=N\OCc1c(Cl)cccc1Cl
  -5 | /
> COC(=O)CSc1nnc(CNC(=O)c2cccs2)n1-c1ccccc1
  4 | /
> Cc1ccc(S(=O)(=O)N(CC(=O)NC2CC2)C2CCCCC2)cc1
  10 | 0.5
> O=C(O)c1cccc(NS(=O)(=O)c2cc3c4c(cccc4c2)C(=O)NC3=O)c1
  7 | 2.2
> C/C(N)=C(/C#N)C(=O)CSc1nnc(C(F)(F)F)n1N
  6 | /
> NC(=S)Cc1nc2ccccc2[nH]1
  -8 | /
> FC(F)(F)c1cccc(-c2ccc(-c3nn4c(-c5ccco5)nnc4s3)o2)c1
  6 | 0.2
> O=C1Nc2ccccc2/C1=N/N1C(=O)CNC1=O
  3 | -1.0
> COc1cc2ncnc(Sc3ccc(C)cc3)c2cc1OC
  / | -1.2
> Cc1cc(=O)n2[nH]c(N3C(=O)c4ccccc4C3=O)nc2n1
  8 | 4.2
> COc1ccc(-c2cc(C(F)(F)F)n3nc(C(=O)NCC4CCCO4)cc3n2)cc1OC (centres undefined)
  / | -1.4
> C=CCN(CC=C)S(=O)(=O)c1ccc2nc(NC(=O)C(C)C)sc2c1
  5 | 2.5
> N#Cc1ncn(-c2ccccc2Oc2ccccc2)c1N
  / | -1.7
> COC1=C(C2(O)CCCc3c2no[n+]3[O-])CCc2c1no[n+]2[O-] (centres undefined)
  / | -0.1
> O=C(CSc1nccc(=O)[nH]1)c1ccc(Br)cc1
  8 | /
> COc1ccc2nc(NNC(=O)C3COc4ccccc4O3)sc2c1 (centres undefined)
  -6 | /
> O=C(CSC1CCCCC1)c1ccccc1F
  5 | 3.5
> CCc1ccc(NC(=O)N2CCSc3ccccc32)cc1
  19 | /

Carrying on.
Values in the order – Sa helicase inh | MgrA-DNA mod
> COC(=O)CSc1nnc(CNC(=O)c2ccccc2OC)n1C
  2 | 0.6
> Cc1ccc(Cc2cnc(N)s2)o1
  5 | 1.4
> O=C(OCc1ncc(-c2ccccc2)o1)c1cc(=O)[nH]c2ccccc12
  -5 | /
> Cc1nnc2c3cnn(-c4ccccc4)c3nc(C)n12
  -15 | /
> Cc1ccc(C(=O)OC(C)C(=O)NC2CCCC2)c(C)c1 (centres undefined)
  -2 | /
> COc1cccc(CN(C)C(=O)c2cc(C)oc2C)c1OC
  -10 | /
> COc1ccccc1OCCN1CCOCC1
  4 | 0.5
> CN1CN(C)c2ccc(Br)c3cccc1c23
  -8 | /
> CCOC(=O)C1=C(C)N(C)C(=O)N(C)C1c1ccccc1 (centres undefined)
  / | -0.8
> Cn1c(SCC(=O)N2CCCc3ccccc32)nnc1-c1ccccc1N
  -1 | 0.3
> Clc1cc(Cl)c(Cl)c(I)c1Cl
  / | -1.0
> O=C(NCc1cccs1)C(NS(=O)(=O)c1ccc(Br)s1)c1ccccc1 (centres undefined)
  -7 | /
> CN1CCN(C(=O)c2cccc(S(=O)(=O)N(C)C)c2)CC1
  13 | -5.3
> CC1CCCC(C)N1C(=O)CSc1nc2ccccc2[nH]1 (centres undefined)
  11 | 1.2
> CCN(CC)S(=O)(=O)c1ccc(-c2nnc(SCC(=O)N3CCCC3)n2CC)cc1
  0 | 3.0

Seven records drawn at random from those above:
Values in the order – Sa helicase inh | MgrA-DNA mod
> CN1CCN(C(=O)c2cccc(S(=O)(=O)N(C)C)c2)CC1
  13 | -5.3
> CC1CCCC(C)N1C(=O)CSc1nc2ccccc2[nH]1 (centres undefined)
  11 | 1.2
> COC(=O)CSc1nnc(CNC(=O)c2ccccc2OC)n1C
  2 | 0.6
> CCOC(=O)C1=C(C)N(C)C(=O)N(C)C1c1ccccc1 (centres undefined)
  / | -0.8
> O=C(OCc1ncc(-c2ccccc2)o1)c1cc(=O)[nH]c2ccccc12
  -5 | /
> Cc1ccc(Cc2cnc(N)s2)o1
  5 | 1.4
> CCN(CC)S(=O)(=O)c1ccc(-c2nnc(SCC(=O)N3CCCC3)n2CC)cc1
  0 | 3.0

New compounds follow.
Values in the order – Sa helicase inh | MgrA-DNA mod
> O=C(CCc1nc2ccccc2[nH]c1=O)OCc1ccc(Br)cc1
  10 | /
> COc1cccc(N2CC(=O)N(/N=C/c3ccc(C)o3)CC2=O)c1
  33 | /
> Cc1ccccc1Cn1ccc(NC(=O)COCc2cc(-c3cccs3)on2)n1
  10 | /
> Cc1cc(=O)oc2cc(O)cc(O)c12
  / | -1.2
> Cc1cccc(C(=O)O)c1F
  / | 1.3
> O=c1ccc(S(=O)(=O)N2CCCC2)cn1Cc1c(-c2ccccc2)nc2sccn12
  20 | /
> CCSc1nnc(-c2ccc(S(=O)(=O)N3CCOCC3)cc2)n1C
  9 | 0.6
> CC(C)(C)C1=CC(=O)C=C(C(C)(C)C)C1=O
  / | -3.2
> O=C(O)CC(c1ccc(Cl)c(Cl)c1)N1Cc2ccccc2C1=O (centres undefined)
  / | -2.8
> C=C(C)Cn1c(SCC(C)O)nc2c1c(=O)[nH]c(=O)n2C (centres undefined)
  16 | /
> O=C(O)CCN1c2ccccc2Sc2ccccc21
  -2 | 3.5
> N#CC(C#N)=C1SCN(c2cccc(Cl)c2)CS1
  / | 18
> O=C(O)CC1(CC(=O)Nc2ccccc2N2CCOCC2)CCCC1
  / | 0.5
> Cn1c(SCC(=O)NCCN2C(=O)S/C(=C\c3ccccc3F)C2=O)nnc1-c1ccco1
  -10 | /
> CO[C@@]12[C@H](COC(N)=O)C3=C(C(=O)C(C)=C(N)C3=O)N1C[C@@H]1N[C@@H]12
  / | 1.5
> O=C(/C=C/c1ccc2c(c1)OCO2)/C=C/c1ccc2c(c1)OCO2
  -4 | 1.6
> CSc1nc(N)n2nc(-c3ccccc3)cc2n1
  / | -2.8
> CCOC(=O)c1sc2sc(C(=O)OCC)c(-c3ccco3)c2c1N
  / | -2.5
> COc1ccccc1N(CC(=O)Nc1ccccc1)S(C)(=O)=O
  4 | 1.2
> CCN(CC)C(=O)c1sc2nc(-c3ccccc3)ccc2c1N
  4 | /
> CCC(C)NS(=O)(=O)c1ccc(NC(=O)c2cccs2)cc1 (centres undefined)
  15 | -0.6
> CCOc1ccc(OCC)c(NC(=O)c2c(C)nc3ccccn23)c1
  3 | -2.5
> COc1cc(/C=N/Nc2ccccc2)ccc1OC(=O)c1ccccc1
  / | -2.4
> CNC(=O)Nc1cccc(-c2ccnc(C)n2)c1
  / | -2.8
> Cc1ccc2c(c1)-c1c(cnn1CC(=O)Nc1ccccc1N1CCN(C)CC1)CO2
  -14 | /
> O=C(CCCn1c(SCC(=O)c2ccc(F)cc2)nc2ccccc2c1=O)NCc1ccccc1
  1 | 0.7
> O=C1CCCN1C(=O)CSc1nc(-c2ccccc2)cs1
  -11 | /
> Cc1noc(C)c1CN1C(=O)NC(Cc2ccccc2)(Cc2ccccc2)C1=O
  7 | /
> CCC(C)(C)C1CCC(=O)/C(=C\c2ccccc2)C1 (centres undefined)
  / | 1.1
> O=C(CCSc1nc(-c2ccco2)cc(C(F)(F)F)n1)N1CCCCC1
  7 | -1.9
> O=c1c(N2CCCC2)csc2ccc(F)cc12
  4 | /
> Clc1cc2nc[nH]c2cc1Cl
  / | -0.6
> O=C(CCC(=O)N1CC=C(c2c[nH]c3ccccc23)CC1)NC1CCCC1
  32 | /
> CC(C)SCC(=O)Nc1ccc(Br)cc1
  / | -0.4
> O=C(CN1c2cccc3cccc(c23)S1(=O)=O)Nc1ccccc1
  -9 | /
> CCc1ccc(N2C(=S)N(C(=O)c3cccs3)C3CC2(C)Oc2ccccc23)cc1 (centres undefined)
  -6 | -2.0
> CC(=O)Nc1ncc(CN2CCCCC2)s1
  13 | 1.6
> O=C(NCc1ccc2c(c1)OCO2)[C@@H](c1ccccc1)N1Cc2ccccc2C1=O
  -10 | /
> CCOC(=O)/C(C#N)=C/c1cn(C(=O)c2ccncc2)nc1-c1ccccc1
  -13 | /
> CN1c2ccsc2C(=O)/C(=C\Nc2ccncc2)S1(=O)=O
  / | 3.0
> c1coc(-c2cn3c(n2)sc2ccccc23)c1
  11 | 3.1
> O=C(Nc1ccccc1)N1CCCC(c2nc(-c3cccs3)no2)C1 (centres undefined)
  12 | 0.6
> NCCCc1ccc(F)cc1
  14 | 1.0
> Cc1ccc(NC(=O)CN(C)C(=O)CSc2nnc(-c3ccccc3)n2N)cc1
  -14 | /
> CCSc1nc2sc3c(c2c(=O)n1-c1ccccc1)CC(C)(C)OC3
  12 | /
> CCOC(=O)C(C)n1cnc2sc3c(c2c1=O)CCC3 (centres undefined)
  -7 | /
> O=c1ccc(C(F)(F)F)cn1Cc1ncc(-c2ccccc2)o1
  -6 | /
> O=C(c1cccc(N2CCCC2=O)c1)N1CCOCC1
  12 | /
> Cc1ccc2c(c1)c1c3n2CCN(C/C(=N/O)c2ccc(Br)cc2)C3CCC1 (centres undefined)
  6 | 0.4
> CCN1C(=O)NC(c2ccc([N+](=O)[O-])cc2)C(C(=O)OCCc2ccccc2)=C1C (centres undefined)
  / | -2.0
> COc1nc(N2CCc3ccccc32)nc(N2CCc3ccccc32)n1
  -3 | -2.5
> Cn1c(=O)oc2cc(N)ccc21
  10 | 1.1
> Cc1ccc(-n2nnnc2S(C)(=O)=O)c(C)c1
  12 | -1.6
> S=c1n(CN2CCCCC2)c2ccccc2n1CN1CCCCC1
  2 | 3.4
> CN(Cc1ccccc1)c1nnc(NC(=O)Cn2c(=O)oc3ccccc32)s1
  5 | /
